Source: PubChem BioAssay
TRPML1 agonist: qHTS for Agonists of the Human Mucolipin Transient Receptor Potential 1 (TRPML1); activation, % (test concentration not listed); hit rate 0.12% among 410,000; TRPML1-expressing cells, Ca2+ dye fluorescence, FDSS; host cell line not named in the record; reference of the full effect not given here; in the data active = activation above about 50%; inconclusive = about 30% to 50%; inactive = below about 30%; also: 0% is about no effect; the text of the record puts the active cut at 80%
Target sequence (Q9GZU1 whole entry, looked up): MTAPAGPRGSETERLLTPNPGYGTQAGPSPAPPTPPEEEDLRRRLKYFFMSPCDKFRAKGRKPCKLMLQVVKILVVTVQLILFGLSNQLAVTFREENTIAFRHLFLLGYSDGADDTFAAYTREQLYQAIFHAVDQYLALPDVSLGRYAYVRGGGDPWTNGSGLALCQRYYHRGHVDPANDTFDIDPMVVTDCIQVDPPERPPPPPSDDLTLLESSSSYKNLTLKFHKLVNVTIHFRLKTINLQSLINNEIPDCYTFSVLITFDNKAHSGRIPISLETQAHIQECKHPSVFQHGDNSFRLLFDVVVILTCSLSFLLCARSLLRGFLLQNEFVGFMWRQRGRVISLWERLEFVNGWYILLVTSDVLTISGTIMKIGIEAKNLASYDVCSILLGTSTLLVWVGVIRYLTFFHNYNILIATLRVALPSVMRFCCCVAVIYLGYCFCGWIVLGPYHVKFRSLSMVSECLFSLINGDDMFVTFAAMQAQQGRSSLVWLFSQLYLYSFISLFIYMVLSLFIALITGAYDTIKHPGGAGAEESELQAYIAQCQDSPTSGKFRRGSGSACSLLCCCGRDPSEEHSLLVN
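Agonist activity was taken from a 110 s kinetic Ca2+ dye read on the FDSS after pinning compounds onto TRPML1-DL cells. The cells were seeded at 1,500/well with Tet inducer, incubated about 16 h, then dye-loaded at room temperature.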
D2 potentiator: Beta-Arrestin HTS for Positive Allosteric Modulators of the Human D2 Dopamine Receptor: Potentiators; D(2) dopamine receptor (Homo sapiens), P14416; DiscoveRx D2 beta-arrestin cells, luminescence, 90 min; 100% = 57 uM dopamine signal; potentiation, % (test concentration not listed); hit rate 0.23% among 360,000; active = potentiation of 50% or more; inconclusive = 30% to 50%; inactive = 30% or less;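 also: compound concentration not given in the record; tested on top of an EC20 dose of dopamine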
Target sequence (P14416 whole entry, looked up): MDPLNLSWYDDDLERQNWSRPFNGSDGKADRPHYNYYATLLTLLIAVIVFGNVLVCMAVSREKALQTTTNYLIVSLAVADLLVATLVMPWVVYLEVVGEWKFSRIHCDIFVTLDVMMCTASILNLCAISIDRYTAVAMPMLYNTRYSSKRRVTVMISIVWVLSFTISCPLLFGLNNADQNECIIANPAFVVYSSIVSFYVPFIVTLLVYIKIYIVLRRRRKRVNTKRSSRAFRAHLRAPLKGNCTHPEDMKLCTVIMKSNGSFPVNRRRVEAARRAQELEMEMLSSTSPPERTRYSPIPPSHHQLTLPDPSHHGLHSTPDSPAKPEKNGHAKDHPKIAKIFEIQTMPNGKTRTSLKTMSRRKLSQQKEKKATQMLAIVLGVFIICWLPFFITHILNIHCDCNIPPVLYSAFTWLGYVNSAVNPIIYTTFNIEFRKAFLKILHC
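PathHunter D2 cells, attached overnight at 37 deg C, received compound in DMSO plus dopamine at EC20 (50 nM final) for 90 min at 37 deg C. Beta-arrestin recruitment was read as luminescence after 1 h with detection reagent at ambient temperature.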
Six1-Eya2 inh: qHTS Assay for Inhibitors of the Six1/Eya2 Interaction. Homeobox protein SIX1 (Homo sapiens) + Protein phosphatase EYA2 (Homo sapiens), …. AlphaScreen GST-Six1/His-Eya2 binding, biochemical; active compounds read low; control for the full effect not named in the record. activity change, % (test concentration not listed). hit rate 0.56% among 360,000. AID 651725, 2012; in the data active = activity change below about -65%; inconclusive = about -30% to -65%; inactive = above about -30%; also: % is scaled to controls: 0 for no effect and ±100 for the full control effect
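GST-Six1 + His-Eya2 (5X stock: 250/500 nM); Tris pH 8.0, 300 mM NaCl, 0.05% BSA, 0.02% Tween 20; GSH donor/Ni acceptor beads; 1 h 37 °C dark; AlphaScreen readout.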
TRPML1 inh: qHTS for Inhibitors of the Human Mucolipin Transient Receptor Potential 1 (TRPML1); Mucolipin-1 (Homo sapiens), Q9GZU1; TRPML1-inducible cells, Ca2+ dye fluorescence, FDSS; active compounds read low; inhibition of EC80 agonist-evoked calcium signal; activity change, negative = inhibition, % (no concentration beside the values); hit rate 0.02% among 390,000; in the data active means activity change below about -50%; inconclusive means about -30% to -50%; inactive means above about -30%;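 also: stimulus is agonist 54-4 at its EC80 concentration; % is scaled to controls: 0 for no effect and ±100 for the full control effect; compound concentration not given in the record; the text of the record puts the active cut at -80%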
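Tet-induced TRPML1-DL cells loaded with Ca8 no-wash calcium dye were read kinetically on FDSS. Compound addition was followed by EC80 agonist 54-4 (4 uM final); inhibition was read over 110 s.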
D2 agonist: Beta-Arrestin HTS for Positive Allosteric Modulators of the Human D2 Dopamine Receptor: Agonists | DiscoveRx PathHunter D2 beta-arrestin, luminescence, 90 min; 100% = 57 uM dopamine signal | activation, % (test concentration not listed) | hit rate 0.084% among 360,000 | AID 624465, 2012; in the data active = activation above about 40%; inconclusive = about 15% to 40%; inactive = below about 15%; also: compound concentration not given in the record; the text of the record calls up to 30% inactive
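DiscoveRx PathHunter D2 beta-arrestin cells (2,100/well) attached overnight, then compound-stimulated 90 min at 37 C in HBSS/10 mM HEPES/0.1% Tween-20 buffer; beta-galactosidase complementation read by luminescence after 1 h at ambient temperature. Dopamine 57 uM final (EC100) as control.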
PINK1 expr mod: A Quantitative High throughput Screen to Identify Chemical Modulators of PINK1 Expression | PINK1 immunofluorescence, high-content cytometry, 24 h | Potency, µM (top dose mostly 76.6 µM), for inactives: at the highest dose activation (PINK1 increase), most hits filed as activators | hit rate 0.2% among 410,000 | AID 624263, 2012; active = well fitted activation curve with a large enough effect; inconclusive = small, poorly fitted or top-dose-only effect; inactive = flat fitted curve, though single readings scatter; cell line not stated here;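 also: potency is read from the fitted curve at half-maximal effect; % of control where 0% means no effect; nearly all actives have a fitted effect of over 65% in size; a mitochondrial uncoupler was the plate control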
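PINK1 protein, normally rapidly degraded, was detected by immunofluorescence after 24 hour compound treatment of a stable cell line. Titration data (5 concentrations) came from laser-scanning cytometry, with CCCP-treated wells as controls.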
* marks the source's active call; other numbers are inactive results; ? = inconclusive; nt = no result given; & = joins results of further samples; [ ] = remark or other dose.

Results follow in this order: D2 agonist	TRPML1 agonist	Six1-Eya2 inh	D2 potentiator	PINK1 expr mod	TRPML1 inh
[1] Cc1nnc(N2CCC(C(=O)NC(C)C)CC2)c2nn(-c3ccc(Cl)cc3)c(C)c12
 : nt	0.4	nt	nt	0.7%	-3
[2] CC(=O)CSc1nc2c(c(=O)[nH]c(=O)n2C)n1Cc1cccc(Br)c1
 : 6.8	0.2	0	0	1.2%	-2
[3] CC(C)C(=O)N1CCC(c2nc(-c3ccc(S(=O)(=O)N4CCN(C)CC4)cc3)no2)CC1
 : 1.4	0.3	-3	0	-0.5%	-8
[4] CCCCC[C@H](C)N1C[C@@H](COCc2ccccc2)Oc2cc(N3CCC[C@@H]3CO)ccc2S1(=O)=O
 : nt	0.0	7	nt	6.5%	nt
[5] COCCn1c(SCC(=O)c2cc(C)n(C)c2C)nc2ccccc2c1=O
 : 2.0	1.8	-4	-2	0.9%	32
[6] COC(=O)C1=C(C(=O)OC)C2(OC1c1cccc(F)c1)C(=O)c1ccccc1C2=O (stereo not given)
 : -1.2	5.2	7	-6	1.4%[38.3 µM]	14
[7] COCOCCn1cc(CN2CCS(=O)(=O)N(Cc3ccc(-c4ccc(C)cc4)cc3)C(C(C)C)C2=O)nn1 (stereo not given)
 : -3.1	-0.3	3	-5	3.5%	-5
[8] CCCCn1c(SCC(=O)NC2CCS(=O)(=O)C2)nnc1-c1ccc(OC)cc1 (stereo not given)
 : -2.8	-0.4	12	-11	-2.6%	6
[9] Cc1cc(O)c(C(C)C)cc1N=C1CSC(=O)N1
 : -2.9	-0.6	-2	-35	-0.1%	11
[10] NC(=O)c1ncn([C@@H]2O[C@H](CNCc3ccccc3C#Cc3ccccc3)[C@@H](O)[C@H]2O)n1
 : -1.3	-0.9	-1	-2	1.8%	-11
[11] Cc1ccsc1C(=O)OCC(=O)Nc1c(Cl)cccc1C(F)(F)F
 : -4.5	-0.7	8	-21	1.8%	4
[12] Cc1nn(C)c(C)c1S(=O)(=O)N1CCC(C(=O)NCC2COc3ccccc3O2)CC1 (stereo not given)
 : 4.3	0.4	4	-1	0.3%	18
[13] CC1(C(=O)O)CCC(C(=O)NC2CCCCC2)C1(C)C (stereo not given)
 : 1.2	0.8	3	1	-4.3%[38.3 µM]	15
[14] O=C(NC(=S)Nc1ccc2[nH]ncc2c1)c1ccccc1
 : -1.9	-0.3	-10	-6	2.4%	1
[15] Cc1cc(C)c2cc(CN(CC3CCCO3)S(=O)(=O)c3ccc4c(c3)OCCO4)c(=O)[nH]c2c1 (stereo not given)
 : 0.8	0.5	-1	3	nt	-1
[16] Cc1cc(C)n2nc(SCC(=O)N3CCCC(C)C3)nc2n1 (stereo not given)
 : -2.3	0.1	1	-21	2.5%	31
[17] O=C(Nc1ccccc1)N1CCCC(CNS(=O)(=O)Cc2ccccc2)C1 (stereo not given)
 : 3.1	-0.7	16	-3	-0.1%	6
[18] Cc1nn(-c2ccccc2)c(C)c1C(=O)OCC(=O)Nc1ccc2c(c1)OCO2
 : -0.8	3.5	-8	-7	-3.7%	0
[19] Cc1ccc(S(=O)(=O)Nc2cc3c4c(c2)CC(=O)N4CCC3)cc1
 : -3.9	0.4	-5	-32	5.8%	-15
[20] CN(C)C(CNC(=O)C1CCN(S(=O)(=O)c2ccccc2)CC1)c1ccccc1 (stereo not given)
 : -3.9	nt	6	-18	2.6%	nt
[21] CN(CC(=O)Nc1cc(S(=O)(=O)N2CCCC2)ccc1Cl)Cc1cccs1
 : -7.9	2.5	-11	-30	1.9%	31
[22] COc1cccc(CN2CCNC(=O)C2CC(=O)N(C)Cc2nc(C)cs2)c1OC (stereo not given)
 : -2.8	0.5	0	1	2.5%	5
[23] O=C(Cc1ccc(NC(=O)C2CCCN(C(=O)C3CCCCC3)C2)cc1)Nc1cccc(C(=O)N2CCCC2)c1 (stereo not given)
 : 0.5	0.3	-1	nt	-0.8%	43
[24] Nn1c(Cc2ccc(F)cc2)n[nH]c1=S
 : -5.0	-0.2	1	-6	-1.1%	17
[25] COc1cc(Cl)c(CC(=O)c2c[nH]c3ccccc23)cc1OC
 : 4.1	2.9	-1	-4	13%	10
[26] COCCNC(=O)C1CCCN(C(=O)c2ccc(F)c(C)c2)CC1 (stereo not given)
 : -5.4	-0.7	-19	-6	0.0%	nt
[27] CCCc1cnc2c(c1SCc1cccc(F)c1)c(=O)n(C)c(=O)n2C
 : nt	1.1	nt	nt	0.9%	9
[28] Cc1cc(NC(=O)COc2ccc(C)c(C)c2)no1
 : -1.0	0.9	6	-4	5.0%	-4
[29] CCS(=O)(=O)N1Cc2ccccc2CC1C(=O)Nc1ccc(OC)cc1 (stereo not given)
 : 0.7	3.1	1	-38	0.7%	-6
[30] C=C(C)c1cccc(C(C)(C)NC(=O)NCCN(CC)CC)c1
 : -8.8	-0.1	0	-6	0.6%	5
[31] O=c1cnn(-c2ccc(Cl)cc2Cl)c(-c2ccccc2)c1
 : -2.5	0.3	8	5	5.4%	-13
[32] Cc1cccn2c(=O)c3cc(C(=O)NC(C)c4ccccc4)c(=N)n(CCOCCO)c3nc12 (stereo not given)
 : nt	-0.4	nt	nt	-0.6%	4
[33] O=C(CNCc1ccccc1)Nc1cccc(Cl)c1Cl
 : 1.3	3.0	5	-25	0.7%	4
[34] CCOc1cc(C(=O)N(C)CC(=O)Nc2cccc(F)c2)ccc1OCC(=O)N1CCOCC1
 : -0.2	-0.8	2	19	0.1%	2
[35] CCCCCN(C(=O)NC(=O)NC(C)CC)S(C)(=O)=O (stereo not given)
 : -0.6	-0.5	4	-9	-4.7%[38.3 µM]	1
[36] OC1CCN(C(c2ccc3ncccc3c2)c2nnnn2C2CCCCC2)CC1 (stereo not given)
 : 0.6	0.5	2	0	nt	24
[37] CCCCn1c(=O)c2oc3ccccc3c2n(CC(=O)Nc2cc(C)ccc2C)c1=O
 : nt	1.1	nt	nt	1.7%	24
[38] CCCCCCCNC(=O)C1(CC2CC(c3ccc(Cl)cc3)=NO2)CCNCC1 (stereo not given)
 : -1.6	0.4	2	-11	-1.1%	-11
[39] COc1ccc(NS(=O)(=O)c2cccs2)cc1S(=O)(=O)N1CCCCC1
 : -4.4	0.3	2	6	2.2%	-17
[40] COc1cccc(CNC(=O)c2ccc3nc(N4CCCCC4)sc3c2)c1OC
 : nt	0.0	nt	nt	0.4%	-15
[41] COc1ccc(-c2noc(CN(C(=O)C(C)(C)C)C(C)C)n2)cc1
 : -6.6	-1.3	-1	3	0.6%	6
[42] CCOC(=O)c1c(-c2ccc(C)cc2)csc1NC(=O)c1ccc(C(C)(C)C)cc1
 : nt	-0.4	nt	nt	0.5%	-5
[43] Cc1cc(C)c2nc(N3CCN(C(=O)c4ccco4)CC3)sc2c1
 : -2.7	2.9	-15	1	0.9%	0
[44] COC(=O)CCC(=O)N1CN2CN(C(=O)CCC(=O)OC)CC([N+](=O)[O-])(C2)C1
 : -1.7	0.8	-2	-5	-1.1%	-19
[45] COc1ccc(NC(=O)NCCn2nnc3cc(S(=O)(=O)N(C)C)ccc32)cc1
 : nt	-0.8	nt	nt	0.6%	-14

Four compounds from above, ordered by count of non-hydrogen atoms, high to low.
Results follow in this order: D2 agonist	TRPML1 agonist	Six1-Eya2 inh	D2 potentiator	PINK1 expr mod	TRPML1 inh
[34] CCOc1cc(C(=O)N(C)CC(=O)Nc2cccc(F)c2)ccc1OCC(=O)N1CCOCC1
 : -0.2	-0.8	2	19	0.1%	2
[37] CCCCn1c(=O)c2oc3ccccc3c2n(CC(=O)Nc2cc(C)ccc2C)c1=O
 : nt	1.1	nt	nt	1.7%	24
[45] COc1ccc(NC(=O)NCCn2nnc3cc(S(=O)(=O)N(C)C)ccc32)cc1
 : nt	-0.8	nt	nt	0.6%	-14
[39] COc1ccc(NS(=O)(=O)c2cccs2)cc1S(=O)(=O)N1CCCCC1
 : -4.4	0.3	2	6	2.2%	-17

New compounds follow
Results follow in this order: D2 agonist	TRPML1 agonist	Six1-Eya2 inh	D2 potentiator	PINK1 expr mod	TRPML1 inh
[46] CCCCP(=O)(CCCC)Cc1ccccc1O
 : 0.9	1.2	1	11	-1.6%	8
[47] CC1=C(C(=O)NC2CCCc3c2cnn3-c2ccc(F)cc2F)OCCO1 (stereo not given)
 : 0.2	-0.7	6	-6	-0.3%	-2
[48] CO/N=C/C(c1ncc(C(F)(F)F)cc1Cl)S(=O)(=O)c1ccccc1 (stereo not given)
 : -3.8	0.6	2	-4	1.6%	-14
[49] CC(NC(=O)CCCC1=NS(=O)(=O)c2ccccc2N1)c1ccccc1 (stereo not given)
 : nt	20	nt	nt	2.2%	5
[50] O=[N+]([O-])c1ccc(Cl)c(C2Nc3cccc4cccc(c34)N2)c1
 : 5.7	0.6	?	15	3.0%	35
[51] Cn1c(CN2CCOCC2)nc2cc(NC(=O)COc3ccc([N+](=O)[O-])cc3)ccc21
 : -1.6	-0.6	6	-7	0.3%	-18
[52] CCOC(=O)c1cnc2c(Cl)cccc2c1NCCN1CCOCC1
 : 0.2	1.0&-0.5	-1	-3	-1.1%&-0.5%	11&8
[53] CN(CC(=O)Nc1cccc(F)c1)C(=O)CCCN1C(=O)c2cccc3cccc(c23)C1=O
 : -0.3	-0.6	?	-12	-1.1%	3
[54] CCN(c1ncnc2c1cnn2-c1ccc(C)cc1)C1CCCCC1
 : nt	0.5	nt	nt	1.4%	23
[55] Cc1ccc(NC(=O)c2ccc(C(C)(C)C)cc2)cc1[N+](=O)[O-]
 : -1.5	0.3	?	5	6.5%	43
[56] COc1ccc(-c2nnc(SCC(=O)Nc3cccc(C)c3)s2)cc1
 : nt	0.3	nt	nt	-0.1%	34
[57] COc1cc(NC(=O)Cn2c(=O)n(-c3cccc(C)c3)c(=O)c3c(C)c(C)sc32)cc(OC)c1
 : -2.1	1.4	8	-7	12%	-14
[58] Cc1ccc(CSc2ccc(S(=O)(=O)N3CCCC3)cn2)cc1
 : -3.3	0.1	22	0	0.5%	9
[59] CC(C)N1CCNCC1
 : -6.1	0.9	4	-4	-0.9%	26
[60] COc1cccc(NC(=O)CN(C)C(=O)CCSc2ccc(C)cc2)c1
 : -2.0	1.1	3	0	-0.8%	1
[61] CCN(CC)C(=O)Cn1cnc([N+](=O)[O-])n1
 : 2.1	0.5	7	29	nt	-5
[62] Cc1ccc(OCCCC(=O)Nc2ccc(S(N)(=O)=O)cc2)cc1
 : 1.0	-0.1	0	-11	1.8%	6
[63] COc1ccc(NC(=O)CN2CCN(C(=O)C3CCCO3)CC2)c(OC)c1 (stereo not given)
 : 5.9	-0.1	4	-22	-0.5%	8
[64] CCNC(=O)C1CCCN(c2ncnc3onc(C)c23)C1 (stereo not given)
 : nt	-0.5	nt	nt	-0.1%	-10
[65] Cc1ccc(S(=O)(=O)N2C[C@H]3[C@H]4C(=O)N(Cc5ccccc5)C(=O)[C@H]4CC(=O)[C@H]3[C@@H]2c2ccccc2)cc1
 : -1.5	-0.4	1	-7	0.2%	nt
